# Screening results (PubChem)
# AF4-AF9 inh: inhibitors of human MLL-AF4/AF9 interaction. actives 0.47% (n = 350,000). inhibition, % at 10 µM. AID 651704. P42568. AlphaScreen, biotin-AF4 peptide binding to FLAG-AF9;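 active = every replicate reaching a set inhibition limit, whatever the replicate mean, cut at about 25% in these data; inconclusive = mean inhibition reaches that limit but some replicates miss it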;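 note: 0% = plate neutral control median and 100% = total signal loss; the record names both 10 and 1 µM as test concentration; the first replicate is given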
# E coli growth: inhibitors of Escherichia coli growth | OD600, 23 h; stronger effect = lower value | OD600 absorbance (test concentration not listed) | actives 0.21% (n = 330,000);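 active = OD600 absorbance below the run mean of sample wells minus 3.6 SD, in any replicate, cut at about 0.56 in these data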;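 note: stock transfer was 300 nL into about 60 µL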
# Ecoli rRNA inh: selective bacterial rRNA inhibition in E. coli. AID 720706. E. coli WT GFP vs humanized-ribosome RFP mutants, fluorescence, 24 h; stronger effect = lower value; DMSO median 0, no signal -100. actives 1.6% (n = 350,000). GFP signal change (wild-type ribosome), % (concentration not given with the values);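 active = significant combined selectivity score with lowered wild-type GFP, culture density cut under 30%, mutant RFP and density less affected; inactive = any of these conditions unmet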; note: one replicate is shown; some compounds called inactive have numbers as strong as hits
# Vif TR-FRET: inhibitors of Vif binding to APOBEC3G peptide, primary screen, biochemical, TR-FRET, GST-Vif 1-94, biotin-A3G peptide, dose response retest (AID 1117319). TR-FRET GST-Vif / biotin-A3G peptide binding; higher % means a stronger effect; test concentration not given here; strong numbers were not always called active. inhibition, %; hits with a dose series show IC50 in µM. actives 0.57% (n = 260,000);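 active = above the screen mean plus three standard deviations and confirmed in dose response; inconclusive = results disagree or hit not tested in dose response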;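 note: Vif residues 1-94 fused to GST binding biotinylated APOBEC3G peptide 110-148; 0% = full assay without inhibitor and 100% = GST in place of GST-Vif; retest series ran down from 100 µM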
# HNF4A DNA FP: change in binding of human HNF4 alpha to DNA; HNF4a-FITC DNA binding, fluorescence polarization, 1 h; activity change, % at 10 µM; actives 0.3% (n = 360,000); P41235; AID 1224865; in the data active = activity change above about 30%, passing the limit was not always enough;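 note: controls were the assay level and a saturating level of protein; the project sought stronger binding though the title names inhibitors; some compounds called inactive have numbers as strong as hits; positive values seem to mean higher polarization but the record does not say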
# Target sequence (P41235 whole entry, looked up): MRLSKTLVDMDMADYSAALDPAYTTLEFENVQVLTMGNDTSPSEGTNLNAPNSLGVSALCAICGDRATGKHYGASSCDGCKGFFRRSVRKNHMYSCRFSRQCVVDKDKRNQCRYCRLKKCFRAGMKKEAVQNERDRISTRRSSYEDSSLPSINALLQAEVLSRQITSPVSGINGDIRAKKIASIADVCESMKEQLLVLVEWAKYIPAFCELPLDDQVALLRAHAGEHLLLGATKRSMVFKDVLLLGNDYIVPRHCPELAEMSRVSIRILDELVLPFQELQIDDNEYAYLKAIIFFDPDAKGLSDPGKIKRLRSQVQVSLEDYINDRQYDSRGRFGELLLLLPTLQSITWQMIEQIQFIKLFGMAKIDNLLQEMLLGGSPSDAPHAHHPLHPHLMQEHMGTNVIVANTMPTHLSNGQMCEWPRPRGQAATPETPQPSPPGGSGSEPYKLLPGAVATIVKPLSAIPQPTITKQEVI
# FGF22 binding: FGF22 (human) thermal shift binding; Q9HCT0; recombinant FGF22 thermal shift, SYPRO orange fluorescence; percent of sucrose octasulfate shift, DMSO zero; calls only at 9.99 µM; actives 1.5% (n = 340,000);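 active = melting point raised past a set limit in the mean and every replicate; inconclusive = no clear call; three in four hits are not shown here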
# Target sequence (Q9HCT0 whole entry, looked up): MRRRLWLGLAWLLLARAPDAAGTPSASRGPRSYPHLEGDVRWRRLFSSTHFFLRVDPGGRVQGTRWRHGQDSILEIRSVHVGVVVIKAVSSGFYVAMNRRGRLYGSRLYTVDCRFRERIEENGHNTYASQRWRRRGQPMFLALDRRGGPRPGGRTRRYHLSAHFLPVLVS
# ALR inh: human ALR oxidase inhibition via reduced H2O2; P55789; purified ALR, DTT oxidation, H2O2 HRP-luminol luminescence; inhibition, % (no concentration beside the values); actives 3.8% (n = 290,000);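 active = mean and each replicate at 75% or more; inconclusive = only one of the two met; inactive = neither met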;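 note: stock transfer was 7.5 nL into about 7.5 µL; 0% = neutral wells and 100% = wells with inactivated enzyme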
# Target sequence (P55789 whole entry, looked up): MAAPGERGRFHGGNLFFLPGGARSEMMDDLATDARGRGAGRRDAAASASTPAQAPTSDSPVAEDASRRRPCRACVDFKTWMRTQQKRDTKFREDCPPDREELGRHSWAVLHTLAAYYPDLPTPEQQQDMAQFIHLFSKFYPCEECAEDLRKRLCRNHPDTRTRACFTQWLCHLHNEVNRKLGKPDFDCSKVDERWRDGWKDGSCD
# Ecoli rRNA inh OD600: also measured in Ecoli rRNA inh; calls as there; OD600 change, %; measured here: OD600 growth;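 optical density of the mix in the first replicate; 0 = DMSO median and -100 = no signal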
# Ecoli rRNA inh RFP: further read-out of Ecoli rRNA inh, marked with its call; RFP signal change, %; measured here: RFP humanized mutant strains;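 first replicate; 0 = DMSO median and -100 = no signal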
# * = called active by the depositor; i = inactive; ? = inconclusive; / = no result given; & = joins results of further samples.
# Sequence of screens: AF4-AF9 inh	E coli growth	Ecoli rRNA inh	Ecoli rRNA inh OD600	Ecoli rRNA inh RFP	Vif TR-FRET	HNF4A DNA FP	FGF22 binding	ALR inh
Cn1c2ccccc2c(=O)c2cc(C#Cc3ccsc3)ccc21
  -2.2	0.84	2	8	-1.4	/	-0.9	i	-7
COc1ccc([N+](=O)[O-])cc1NC1C2CC3CC(C2)CC1C3 (centres undefined)
  /	0.69	/	/	/	2%	-4.5	/	-1
O=C(O)c1cccc(C(=O)O)c1
  -3.8	0.78	/	/	/	/	1.5	i	-21
O=C(O)C1CCCCN1C(=O)c1ccc(S(=O)(=O)N2CCCCCC2)cc1 (centres undefined)
  0.2	0.71	18	16	0.3	-4%	2.0	i	-3
O=C(NCc1cc(C(F)(F)F)cc(C(F)(F)F)c1)C1CC(c2cccc(F)c2)=NO1 (centres undefined)
  1.4	0.69	6	-2	16	-5%	-2.9	i	-8
Cn1c2ccccc2c2cc([N+](=O)[O-])ccc21
  0.4	0.68	8	2	-0.3	-20%	-2.9	i	-11
O=C1CC(NNc2nc3ccccc3s2)C(=O)N1c1ccc(F)cc1 (centres undefined)
  -3.5	0.67	6	12	1.2	-5%	-2.2	i	5
Cc1cc(=O)n(Cc2ccco2)c(=S)[nH]1
  4.3	/	9	15	3.4	-2%	-0.3	i	/
CC1=C(C(=O)N(C)C)C(c2ccc(C)s2)NC(=S)N1 (centres undefined)
  -5.2	0.7	17	7	1.2	2%	1.4	i	/
O=C(Nc1cccs1)Nc1ccccc1Br
  -0.9	0.63	-3	0	2.4	0%	3.9	i	32

# (list continues)
# Sequence of screens: AF4-AF9 inh	E coli growth	Ecoli rRNA inh	Ecoli rRNA inh OD600	Ecoli rRNA inh RFP	Vif TR-FRET	HNF4A DNA FP	FGF22 binding	ALR inh
Cc1cc(C(=O)OCC(=O)NCc2ccc(Cl)cc2)c(C)o1
  -1.6	0.67	4	6	-2.7	3%	0.8	i	0
Cc1cnc([N+](=O)[O-])n1CCOC(=O)NC(=O)c1ccccc1
  0.8	0.7	1	9	-1.9	0%	2.6	i	-6
Cc1noc(C)c1NC(=O)N(C)C[C@@H]1Oc2c(NC(=O)Nc3ccc(F)cc3)cccc2C(=O)N([C@@H](C)CO)C[C@H]1C
  0.4	/	2	1	-0.2	/	/	i	/
O=C(c1cccs1)N(C(=O)c1cccs1)c1ccc(Br)cn1
  /	0.64	/	/	/	1%&19%	3.3	/	/
CCN(CC)S(=O)(=O)c1cccc(NC(=O)c2ccc(Sc3nncn3C)c([N+](=O)[O-])c2)c1
  4.2	0.67	1	-5	-2.4	0%	-1.5	i	-9
Cc1cc(C)cc(CC(=O)N2CCC2(C)C(=O)NS(=O)(=O)c2ccccc2Cl)c1 (centres undefined)
  -0.7	/	4	10	0.4	/	0.3	i	/
COc1ccc(C(=O)c2ccc(N3CCOCC3)c([N+](=O)[O-])c2)cc1
  17	0.63	-32	-37	-6.0	-3%	-3.6	i	-3
CC(=O)c1cccc(NC(=O)c2c(F)c(F)c(F)c(F)c2F)c1
  /	0.75	/	/	/	-6%	-2.9	/	-3
CC1(C)OC(=O)C(=CNCC(=O)NCC(=O)O)C(=O)O1
  /	0.72	/	/	/	30%	-3.6	/	-6
C/C=C1\NC(=O)[C@H](C)NC(=O)[C@@H](NC(=O)[C@@H](Cc2ccc(O)cc2)NC(=O)[C@@H](NC(=O)/C(C)=C/C)C(C)C)[C@@H](C)OC(=O)[C@H](CCCCc2ccc(O)cc2)NC(=O)[C@@H](CCC(=O)O)NC1=O
  -2.4	0.69	6	12	2.6	/	0.1	i	/

# Next compounds
# Sequence of screens: AF4-AF9 inh	E coli growth	Ecoli rRNA inh	Ecoli rRNA inh OD600	Ecoli rRNA inh RFP	Vif TR-FRET	HNF4A DNA FP	FGF22 binding	ALR inh
O=S(=O)(c1ccc(F)cc1)N1CCN(c2ncccn2)CC1
  -2.2	0.7	12	6	1.3	/	1.2	i	-8
O=C(Cc1cccs1)N1CCC(c2nc3c(nnn3Cc3ccccc3)c(=O)[nH]2)CC1
  /	0.74	/	/	/	0%	1.3	/	-67
NC(=O)CSc1nnc(-c2cnccn2)n1-c1ccccc1
  /	0.71	/	/	/	-2%	-1.7	/	1
CC1(C)S[C@@H]2[C@H](NC(=O)COc3ccccc3)C(=O)N2C1C(=O)OCc1ccccc1 (some centres undefined)
  -3.9	/	0	-5	0.0	/	-2.6	i	-2
CCc1nn(CC(=O)NCCCN(Cc2ccccc2)C(C)C)c(=O)c2cc3sccc3n12
  /	0.69	/	/	/	8%	1.7	/	2
O=C(COC(=O)c1cc([N+](=O)[O-])ccc1N1CCOCC1)Nc1ccccc1OC(F)F
  3.6	0.69	0	4	-1.1	-1%	4.1	i	-9
CN(C)C(=O)N1CCC(C(=O)NCc2ccc3c(c2)OCO3)CC1
  /	0.74	/	/	/	1%	1.8	/	-2
Cc1ccc2cc3cc(C(=O)N(CC(=O)NC4CCCC4)c4cccc(C)c4C)sc3nc2c1
  /	0.74	4	-7	-3.3	3%	0.6	/	3
O=C(CN1C(=O)c2ccccc2C1=O)NC1CCC(O)CC1 (centres undefined)
  -3.0	0.66	16	15	0.4	-1%	1.1	i	-10
C=C1C(=O)[C@]23C[C@H]1CC[C@H]2[C@]1(C)[C@@H](OC(C)=O)CC[C@@](C)(C(=O)O)[C@H]1C[C@@H]3OC(C)=O
  -3.9	/	23	13	3.2	/	3.6	i	/

# More structures:
# Sequence of screens: AF4-AF9 inh	E coli growth	Ecoli rRNA inh	Ecoli rRNA inh OD600	Ecoli rRNA inh RFP	Vif TR-FRET	HNF4A DNA FP	FGF22 binding	ALR inh
c1cncc(Nc2c3ccccc3nc3ccccc23)c1
  -13	0.57	-4	-26	-2.3	6%	-1.1	i	5
Cc1noc(C)c1S(=O)(=O)Nc1ccc2c(c1)C(=O)N([C@@H](C)CO)C[C@H](C)[C@H](CN(C)Cc1ccc(Cl)c(Cl)c1)O2
  1.6	/	-4	-26	10	/	/	i	/
CN(C)S(=O)(=O)c1cccc(NC(=O)COC(=O)c2cccnc2Cl)c1
  -2.8	0.67	-2	2	0.6	5%	1.8	i	3
C[C@@H]1CN([C@@H](C)CO)C(=O)c2cccc(NC(=O)Nc3ccccc3)c2O[C@@H]1CN(C)Cc1ccc2c(c1)OCO2
  -9.3	/	1	-3	2.4	/	/	i	/
COC(=O)[C@]12CCCCC=C1N(CCc1ccc(OC)c(OC)c1)C(=O)[C@H](CC(=O)NCc1cccc3ccccc13)C2
  1.6	/	11	10	5.1	/	0.2	i	/
Cc1ccc(S(=O)(=O)NCCC(=O)NC2CC2)cc1
  -7.7	0.69	8	16	3.2	3%	0.9	i	1
COc1ccc(-n2ncc3c(=O)n(CC(=O)N4CCCc5ccccc54)cnc32)cc1
  /	0.71	/	/	/	?	-0.3	/	34
CC(CN1CCOCC1)OC(=O)c1ccc(Br)cc1 (centres undefined)
  /	/	/	/	/	3%	-2.5	/	-11
Cc1cc(C#N)c(SCC(N)=O)nc1-c1ccc(F)cc1
  -2.3	0.68	8	6	-1.5	-10%	-1.2	i	/
CCc1nnc(NC(=O)c2c(C)nn(-c3ccccc3)c2Cl)s1
  /	0.67	/	/	/	4%	3.5	/	0

# A different layout for part of the listing above.
AF4-AF9 inh | E coli growth | Ecoli rRNA inh | Ecoli rRNA inh OD600 | Ecoli rRNA inh RFP | Vif TR-FRET | HNF4A DNA FP | FGF22 binding | ALR inh | SMILES
0.4 | 0.68 | 8 | 2 | -0.3 | -20% | -2.9 | i | -11 | Cn1c2ccccc2c2cc([N+](=O)[O-])ccc21
-3.5 | 0.67 | 6 | 12 | 1.2 | -5% | -2.2 | i | 5 | O=C1CC(NNc2nc3ccccc3s2)C(=O)N1c1ccc(F)cc1 (centres undefined)
4.3 | / | 9 | 15 | 3.4 | -2% | -0.3 | i | / | Cc1cc(=O)n(Cc2ccco2)c(=S)[nH]1
-5.2 | 0.7 | 17 | 7 | 1.2 | 2% | 1.4 | i | / | CC1=C(C(=O)N(C)C)C(c2ccc(C)s2)NC(=S)N1 (centres undefined)
-0.9 | 0.63 | -3 | 0 | 2.4 | 0% | 3.9 | i | 32 | O=C(Nc1cccs1)Nc1ccccc1Br
-1.6 | 0.67 | 4 | 6 | -2.7 | 3% | 0.8 | i | 0 | Cc1cc(C(=O)OCC(=O)NCc2ccc(Cl)cc2)c(C)o1
0.8 | 0.7 | 1 | 9 | -1.9 | 0% | 2.6 | i | -6 | Cc1cnc([N+](=O)[O-])n1CCOC(=O)NC(=O)c1ccccc1

# Next records:
# Sequence of screens: AF4-AF9 inh	E coli growth	Ecoli rRNA inh	Ecoli rRNA inh OD600	Ecoli rRNA inh RFP	Vif TR-FRET	HNF4A DNA FP	FGF22 binding	ALR inh
C[C@H]1CN([C@@H](C)CO)C(=O)Cc2cc(NC(=O)CCN3CCOCC3)ccc2O[C@@H]1CN(C)S(C)(=O)=O
  -0.5	/	0	1	-1.5	/	/	i	/
CCn1c(SCC(=O)Nc2oc(C)c3c(C)n[nH]c(=O)c23)nc2sc(C)c(C)c2c1=O
  /	0.74	/	/	/	1%	1.4	/	-1
Cc1ccc(S(=O)(=O)N2CCN(C(=O)CCc3c[nH]c4ccccc34)CC2)c(C)c1
  6.0	0.67	-13	-19	2.6	/	1.1	i	-19
CN(Cc1nc(-c2cnccn2)no1)CC1(c2ccccc2)CC1(C)C (centres undefined)
  -1.6	0.7	-2	-3	-1.4	22%	-2.3	i	-10
Cc1cccc(S(=O)(=O)N2C[C@@H](O)COC[C@@H]3O[C@@H](CC(=O)Nc4ccccc4)CC[C@H]32)c1
  0.5	/	i	/	/	/	/	i	/
CCOC1OC(=O)C(Cl)=C1Nc1ccc(C)cc1 (centres undefined)
  -0.2	0.69	-2	-18	-7.4	4%	0.8	i	-4
CC(=O)NC(CC(=O)O)c1ccc(F)cc1 (centres undefined)
  0.9	/	-1	6	-1.6	20%	1.1	i	-2
c1ccc(COc2cccc(CN3CCCCC3)c2)cc1
  -0.2	0.69	-4	-7	0.1	/	-6.0	i	-4
O=C(C[C@@H]1CC[C@@H](NS(=O)(=O)c2ccc(F)cc2)[C@@H](CO)O1)N1CCC(Cc2ccccc2)CC1
  -0.8	/	5	-20	8.0	/	/	i	/
O=C(CCC(=O)N1CCOCC1)NCCc1ccc(Cl)cc1Cl
  -4.1	0.71	6	10	-3.2	4%	3.9	i	-9

# The results go on:
# Sequence of screens: AF4-AF9 inh	E coli growth	Ecoli rRNA inh	Ecoli rRNA inh OD600	Ecoli rRNA inh RFP	Vif TR-FRET	HNF4A DNA FP	FGF22 binding	ALR inh
O=C(Cc1cccnc1)N1CC2(C1)[C@@H](c1ccccc1)[C@@H](CO)N2C(=O)C1CCOCC1
  -0.9	/	2	9	0.0	/	/	i	/
N#Cc1c(N)n(-c2ccc(O)cc2)c2nc3ccccc3nc12
  -0.7	0.7	4	13	2.5	11%	0.4	i	-6
CCC(c1nnnn1-c1ccc2c(c1)OCCO2)N1CCN(c2ccc(C(F)(F)F)cn2)CC1 (centres undefined)
  -1.2	/	-5	2	-2.9	/	-4.3	i	/
C[C@@H]1CCCCO[C@@H](CN(C)S(=O)(=O)c2ccc(Cl)cc2)[C@@H](C)CN([C@H](C)CO)C(=O)c2cc(NC(=O)Cc3ccccc3)ccc2O1
  1.0	/	6	-2	-2.8	/	/	i	/
CCc1ccccc1-n1nnnc1SCC(=O)Nc1ccc(N2CCN(C)CC2)cc1
  2.5	0.69	-12	-8	-1.7	2%	-0.3	i	-14
CO[C@@H]1CN(C)C(=O)c2cc(NC(C)=O)ccc2OC[C@@H](C)N(CC2CC2)C[C@H]1C
  -0.6	/	-2	0	0.0	/	/	i	/

# Only part of the results is shown, so the mix of outcomes need not match the whole.
